# Env fusion inh: blocks HIV Env-driven cell-cell fusion; HeLa-JRFL Env/CEM21 cell fusion, luciferase; inhibition, % at 12.3 µM; 1.1% of 360,000 active; AID 651610;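 active = mean replicate inhibition score of at least 50 and every replicate individually at or above 50; inconclusive = only one of the two criteria met; inactive = mean below 50 and not all replicates reaching 50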;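 note: 0% = plate neutral controls and 100% = maraviroc near 300 nM; one replicate is shown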
# PABP FP inh: PABP-poly(A) binding inhibition; P11940; PABP-poly(A) RNA binding, fluorescence polarization; inhibition, % at 35 µM; 1% of 290,000 active;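 active = 50% or more with normal probe brightness, or confirmed in later tests; inconclusive = above 50% with abnormal brightness, or retests that disagree; inactive = below 50% or failed in later tests; about a fifth of its hits are not listed in these tables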;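 note: calls also rest on retests at 20 µM and on dose response follow-up; controls were probe without protein and protein plus probe with vehicle; some compounds called inactive have numbers as strong as hits; many hits fall short of the cut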
# eIF4H FP inh: inhibitors of RNA binding by human eIF4H; Q15056; eIF4H fluorescence polarization binding assay; inhibition, % at 35 µM; 0.94% of 290,000 active; AID 2012;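 active = 50% or more with normal probe brightness, or confirmed in later tests; inconclusive = above 50% with abnormal brightness, or retests that disagree; inactive = below 50% or failed in later tests; about a fifth of its hits are not listed in these tables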;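 note: calls also rest on retests at 20 µM and on dose response follow-up; 0% = protein and probe with vehicle and 100% = probe without protein; strong numbers were not always called active; many hits fall short of the cut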
# CSC inhib: cancer stem cell inhibition. cancer stem cell-like cells viability, luminescence. inhibition, % at 7.5 µM. 1.1% of 300,000 active. AID 2717;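 active = mean at 75% or more and at least half the replicates too; inconclusive = mean and replicates disagree; tested in HMLE shEcad cells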;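 note: 0% = median of negative and 100% = median of positive control wells; the first replicate is given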
# UUG fidelity: modulators of start codon recognition fidelity in yeast; S. cerevisiae UUG-firefly luciferase reporter, luminescence/redox ratio; activity score, % at 18.7 µM; 0.13% of 350,000 active;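 active = replicate mean at a twofold rise or more, about +100% in these data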;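 note: firefly luciferase made from a UUG start codon reports start codon fidelity; reporter light over untreated wells divided by growth signal over untreated wells; some hits fall short of that in this replicate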
# MT1-MMP act inh: MT1-MMP (human) activation inhibition. P50281. HT1080 RFP-PRO-GFP cells, GFP/RFP ratio fluorescence, overnight; percent of plate control window, DMSO zero. GFP/RFP ratio change, % at 20 µM. 0.061% of 360,000 active;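 active = GFP/RFP ratio change of at least 30% with cell ATP level not reduced by more than half and red fluorescence within 50% of control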; note: strong numbers were not always called active
#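 system = RFP-PRO-GFP reporter HT1080 cells | dosing = 20 µM single dose, 1% DMSO | timing = overnight cell settling, then overnight compound exposure, 37 °C, 5% CO2 | read-out basis = GFP/RFP fluorescence ratio | controls = DMSO and RFP-L50D-GFP cell wells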
# Rce1 inhib: inhibitors of yeast Ras-converting enzyme; Q03530; yeast membranes, quenched prenylated peptide cleavage fluorescence; calls only; 0.27% of 290,000 active; AID 2563;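 active = fall in fluorescence gain of 50% or more versus controls, with final raw signal at or below 3038400; inconclusive = same 50% fall but final raw signal above 3038400; inactive = fall in fluorescence gain under 50%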;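 note: plate controls were neutral control wells for no effect and wells lacking membranes for full effect; tested at 10 µM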
# Target sequence (Q03530 whole entry, looked up): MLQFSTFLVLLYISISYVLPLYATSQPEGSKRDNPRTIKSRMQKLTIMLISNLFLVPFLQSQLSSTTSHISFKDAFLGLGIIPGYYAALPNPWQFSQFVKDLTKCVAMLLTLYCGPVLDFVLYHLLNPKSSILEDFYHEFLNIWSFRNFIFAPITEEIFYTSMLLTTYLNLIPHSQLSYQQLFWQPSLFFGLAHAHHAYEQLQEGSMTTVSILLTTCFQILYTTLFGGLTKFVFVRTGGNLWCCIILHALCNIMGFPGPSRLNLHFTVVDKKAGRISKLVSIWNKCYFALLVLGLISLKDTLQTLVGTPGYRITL
# eIF4H FP inh retest: recorded beside eIF4H FP inh, whose call it bears; inhibition, %; compound at 20 µM; confirmation average;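 mean of two retest wells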
# PABP FP inh retest: further read-out of PABP FP inh, marked with its call; inhibition, %; compound at 20 µM; confirmation repeats;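 mean of two retest wells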
# MT1-MMP act inh RFP: second read-out of MT1-MMP act inh, no call of its own (marks repeat the call); RFP signal change, %; measured here: RFP expression control read;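 0 = vehicle wells; hits needed this value within 50% of zero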
# * = called active by the depositor; i = inactive; ? = inconclusive; nt = no result given; + = active, no number. This is a subset. The share of hits here may be higher or lower than overall.
SMILES,Env fusion inh,PABP FP inh,eIF4H FP inh,CSC inhib,UUG fidelity,MT1-MMP act inh,MT1-MMP act inh RFP,Rce1 inhib,others
CCCCCCCC(=O)NC(Oc1ccccc1[N+](=O)[O-])C(Cl)(Cl)Cl (stereo not given),nt,-12,-4,-8,-9,0,3,i,
CN(C(=O)c1ccco1)C1(c2ccccc2Cl)CCCCC1=O (stereo not given),nt,-4,-3,-33,-4,4,11,i,
O=c1c2ccccc2nc(-c2cccs2)n1-c1ccccc1,nt,-8,-3,2,-7,-5,-8,i,
Cn1cc([N+](=O)[O-])c(C(=O)Nc2ccc3c(C(F)(F)F)cc(=O)oc3c2)n1,2,6,-6,46,-6,-12,-5,i,
O=C1NC(=O)N(c2ccccc2)C(=O)/C1=C/c1ccc(Sc2ccccc2)o1,nt,-9,?,28,nt,15,44,i,
CCOC(=O)C(C)(CC)NC(=O)CSP(=S)(OCC)OCC (stereo not given),25,-15,0,3,8,-1,-2,i,
Cc1ccc(CN2C3CCCC2CC(NC(=O)Nc2cccc(F)c2)C3)cc1 (stereo not given),-28,-8,-16,25,nt,4,-6,i,
COC(=O)c1c(C)[nH]c(C(=O)C(C)[N+]23CCN(CC2)CC3)c1C (stereo not given),-5,-14,-5,-9,nt,2,5,i,
COc1ccc(CCNCc2cccn2C)cc1OC,1,1,-6,15,1,1,2,i,
CC1NC(=O)NC(=O)C1Br (stereo not given),1,nt,nt,nt,-18,3,3,nt,
O=C(Nc1ccccc1)NC1CC2CCC(C1)N2 (stereo not given),3,-2,6,-8,4,-2,1,i,
CN1CCN(Cc2ccc3ccccc3c2)CC1,-5,-5,4,-6,9,3,6,nt,
CN1C(=O)C(Cc2nc3ccccc3c(=O)n2-c2ccccc2)c2ccccc21 (stereo not given),-19,-10,-10,3,-5,-8,-2,i,
COC(=O)C1=C(c2ccc3ccccc3c2)C[C@@H]2CC[C@H]1N2C(=O)NCCO,21,nt,nt,-11,-18,2,1,nt,
CCCCn1c(N)c(C(=O)OCCOC)c2nc3ccccc3nc21,17,9,3,-6,-11,-14,2,i,
CCN(CC)c1ccc(C=C2C(=O)N(C)C(=S)N(C)C2=O)o1,nt,-4,?,3,-16,-107,32,i,
O=C(O)C1C2CCC(O2)C1C(=O)Nc1ccc(Cl)cc1 (stereo not given),-17,0,12,26,nt,5,5,i,
Cc1ccc(S(=O)(=O)NP(=O)(Oc2ccccc2)Oc2ccccc2)cc1,nt,8,7,9,nt,-1,3,i,
Cc1ccccc1N1C(=O)/C(=C/c2ccco2)C(=O)NC1=S,nt,74*,75*,2,nt,nt,nt,i,
Cc1nc2ccc(Cl)cc2c(=O)n1-c1cccc(Cl)c1,18,-4,-12,-10,-21,14,-6,i,
CC(O)(CS(=O)(=O)c1ccccc1)C(=O)Nc1cccc(C(F)(F)F)c1 (stereo not given),44,-2,11,nt,-9,4,0,i,
CSc1ccc(CNC2CN3CCC2CC3)cc1 (stereo not given),nt,13,-2,-6,-18,-4,-2,i,
Cc1cccc(N2C(=O)CC(=O)NC2=O)c1,nt,37,69*,-1,-19,-16,1,i,eIF4H FP inh retest=71*;PABP FP inh retest=15
COc1cc(O)cc2c1C(=O)OC(C)CCCC(=O)CCC/C=C\2 (stereo not given),3,5,-16,-10,6,-4,1,i,
COc1ccccc1N1CCN(Cc2ccc(F)cc2)CC1,7,-4,0,19,-21,2,2,i,
CNCC(=O)c1ccccc1,nt,nt,nt,-2,5,2,6,i,
Cc1ccc(S(=O)(=O)Oc2ccccc2C=C2C(=O)N(C)C(=O)N(C)C2=O)cc1,3,27,-3,0,9,1,0,i,
CCC(C)N=Cc1c(O)n(-c2ccccc2)c(=O)[nH]c1=O (stereo not given),-9,-3,-5,-5,-16,0,-2,i,
CCOC(=O)c1cccc(C2=C(CNC(=O)c3ocnc3C)[C@H]3CC[C@@H](C2)N3Cc2ccccc2)c1,-101,nt,nt,nt,1,5,11,nt,
N#CCC(=O)NN1Cc2ccccc2C1=N,13,7,-4,0,nt,2,1,i,
O=C(Nc1ccccc1)c1c(O)c2c(n(Cc3ccco3)c1=O)CCCC2,7,-7,-5,6,-11,3,1,i,
Cc1cccc(OP(N)(N)=O)c1C,-1,-1,4,-9,nt,1,3,i,
Cc1nc2ccc(Br)cc2c(=O)n1-c1ccc([N+](=O)[O-])c(C(F)(F)F)c1,7,nt,nt,15,-10,3,-2,nt,
CCCCCSc1cc(OC)c(CCN(C)C)cc1OC,nt,1,8,18,-18,-1,-5,i,
S=C(NCCc1ccccc1)N1Cc2cc(N3CCOCC3)ccc2-n2nncc2C1,19,nt,nt,nt,-16,8,-1,nt,
O=C(O)Cn1cc(/C=C2\C(=O)NC(=O)N(c3ccc(F)cc3)C2=O)c2ccccc21,nt,?,?,-6,nt,nt,nt,i,
FC(F)(F)c1ccccc1CCN1CCNCC1,-3,-7,-1,6,-14,-1,0,i,
COC(=O)N(C)c1ccc(C(O)(C(=O)OC)C(F)(F)F)cc1 (stereo not given),-7,-3,2,-4,-18,3,2,i,
O=c1[nH]c2ccccc2n1C1CCN(CCCC(c2ccc(F)cc2)c2ccc(F)cc2)CC1,40,-4,4,98*,6,0,-22,i,
S=P(NCCSCc1ccccc1)(N1CC1)N1CC1,?,nt,nt,nt,-6,-1,-3,nt,
CCC(=O)C(CCN1CCOCC1)(c1ccccc1)c1ccccc1,-32,nt,nt,-7,nt,0,4,i,
O=c1[nH]c(=S)[nH]c(O)c1N=Nc1ccc2c(c1)OCCO2,21,?,?,8,-15,13,4,i,
CCC(C)N1C(=O)/C(=C\c2cnc(N(C)C)nc2)C(=O)NC1=S (stereo not given),10,-4,42,-5,nt,0,7,i,
COc1ccc(OCC(=O)N2CCCC(N3CCN(c4ccccc4C)CC3)C2)cc1 (stereo not given),27,1,-9,-12,-17,2,-6,i,
COc1ccc(C(=O)Nc2cccc(S(=O)(=O)NCc3ccco3)c2)cc1,11,nt,nt,19,-12,4,-8,nt,
COC(=O)C1=C(c2ccc(OCc3ccccc3)cc2)C[C@@H]2CC[C@H]1N2C(=O)NC1CCN(Cc2ccccc2)CC1,nt,nt,nt,48,-2,4,-16,nt,
CCCCn1c(=O)c(C=Nc2cccnc2Cl)c(O)n(CCCCl)c1=O,34,1,60,-14,nt,-46,1,+,eIF4H FP inh retest=-1;PABP FP inh retest=4
c1ccc2c(N3CCNCC3)cccc2c1,5,nt,nt,-6,-4,-9,-4,i,
CCC(=O)c1cn(Cc2ccccc2)c2ccccc12,0,6,2,-1,1,-1,-3,i,
COc1ccc(-c2nc3ccc(C(=O)N4CCC5(CC4)OCCO5)cc3nc2-c2ccc(OC)cc2)cc1,-4,nt,nt,-6,29,-11,-10,i,
Cc1nn(Cc2ccccc2)c(C)c1C(=O)OCC(=O)Nc1cccc(S(N)(=O)=O)c1,-4,-15,1,10,nt,3,3,i,
Cc1oc(-c2ccc(Cl)cc2)nc1CS(=O)CC(=O)N1CCC2(CC1)OCCO2 (stereo not given),-6,0,-1,-16,6,-1,-4,i,
CCCCCn1c(=O)c(C(=O)Nc2nc(CC(=O)OCC)cs2)c(O)c2ccccc21,12,4,-15,-8,nt,1,-7,i,
CCC(C)NC(=O)CN1C(=O)CN=C(c2ccccc2)c2ccccc21 (stereo not given),-5,-2,16,-11,nt,-1,5,nt,
C(=NC12CN3CN(CN(C3)C1)C2)c1cccs1,nt,2,-3,0,-19,5,7,i,
O=C1NC(=O)C(Nc2ccc(Cl)c(Cl)c2)C(=O)N1,10,nt,nt,nt,2,0,2,nt,
COC(=O)C1=C(c2ccccc2)C[C@@H]2CC[C@H]1N2C(=O)N1CCOCC1,-4,nt,nt,-12,13,-2,0,i,
CC12CCC3C(CC=C4CC(O)CCC43C)C1CC(=CN1CCOCC1)C2=O (stereo not given),3,nt,nt,nt,-9,-5,1,nt,
Nc1ccc2cc(Br)ccc2c1,-18,-2,-3,25,7,8,10,i,
Cn1ncc(Cl)c1C(=O)N1CCC2(CC1)OCCO2,-26,-4,-7,-6,-8,1,1,i,

# Compounds from the list above that contain fluorine:
SMILES,Env fusion inh,PABP FP inh,eIF4H FP inh,CSC inhib,UUG fidelity,MT1-MMP act inh,MT1-MMP act inh RFP,Rce1 inhib,others
Cn1cc([N+](=O)[O-])c(C(=O)Nc2ccc3c(C(F)(F)F)cc(=O)oc3c2)n1,2,6,-6,46,-6,-12,-5,i,
Cc1ccc(CN2C3CCCC2CC(NC(=O)Nc2cccc(F)c2)C3)cc1 (stereo not given),-28,-8,-16,25,nt,4,-6,i,
CC(O)(CS(=O)(=O)c1ccccc1)C(=O)Nc1cccc(C(F)(F)F)c1 (stereo not given),44,-2,11,nt,-9,4,0,i,
COc1ccccc1N1CCN(Cc2ccc(F)cc2)CC1,7,-4,0,19,-21,2,2,i,
Cc1nc2ccc(Br)cc2c(=O)n1-c1ccc([N+](=O)[O-])c(C(F)(F)F)c1,7,nt,nt,15,-10,3,-2,nt,
O=C(O)Cn1cc(/C=C2\C(=O)NC(=O)N(c3ccc(F)cc3)C2=O)c2ccccc21,nt,?,?,-6,nt,nt,nt,i,
FC(F)(F)c1ccccc1CCN1CCNCC1,-3,-7,-1,6,-14,-1,0,i,
COC(=O)N(C)c1ccc(C(O)(C(=O)OC)C(F)(F)F)cc1 (stereo not given),-7,-3,2,-4,-18,3,2,i,
O=c1[nH]c2ccccc2n1C1CCN(CCCC(c2ccc(F)cc2)c2ccc(F)cc2)CC1,40,-4,4,98*,6,0,-22,i,

# (list continues)
SMILES,Env fusion inh,PABP FP inh,eIF4H FP inh,CSC inhib,UUG fidelity,MT1-MMP act inh,MT1-MMP act inh RFP,Rce1 inhib,others
COc1cccc(-n2c(=S)[nH]c3ccccc3c2=O)c1,4,7,3,-5,nt,-1,2,i,
Cn1c(O)c(C=Nc2ccc(Br)cc2)c(=O)n(C)c1=O,-52,11,62,48,-4,-1,-1,i,eIF4H FP inh retest=-17;PABP FP inh retest=36
CC(N)Cc1c[nH]c2ccc(O)cc12 (stereo not given),7,nt,nt,nt,-6,0,4,nt,
O=c1[nH]c(=S)n(C2CC2)c(O)c1C=Nc1cccc(C(F)(F)F)c1,-14,9,-14,-5,-26,17,80,i,
CC12CN3CC(C)(CN(C1)C3c1ccco1)C2=O (stereo not given),nt,8,-4,-9,-12,-5,1,nt,
CCN1CCN(C(=O)Cc2coc3ccc4ccccc4c23)CC1,-32,1,-12,-2,-10,0,4,i,
O=C(c1cc(C(=O)NCc2ccc(Cl)cc2)c(=O)n(Cc2ccc(Cl)cc2)c1)c1cc(F)ccc1O,4,-20,-2,41,nt,-6,-15,i,
C=CCn1c(O)c(C(CC)=NCCC2=CCCCC2)c(=O)[nH]c1=O,11,8,-7,0,-1,4,0,i,
CCN(CC)c1ccc(N=Cc2c(O)n(CCc3ccc(OC)c(OC)c3)c(=O)[nH]c2=O)cc1,nt,-13,27,8,nt,nt,nt,i,
Cc1ccc2c(c1)C1CN(C)CCC1N2C(=O)COc1ccc(S(=O)(=O)N2CCOCC2)cc1 (stereo not given),nt,-1,-4,-8,2,4,5,i,
